Compound activity (PubChem)
HIV Env fusion – inhibitors of HIV Env-mediated cell fusion | 360,000 tested, 1.1% active | HeLa-JRFL Env/CEM21 cell fusion, luciferase | inhibition, % at 12.3 µM | AID 651610;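 active means mean replicate inhibition score of at least 50 and every replicate individually at or above 50; inconclusive means only one of the two criteria met; inactive means mean below 50 and not all replicates reaching 50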;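 further: 0% = plate neutral controls and 100% = maraviroc near 300 nM; one replicate is shown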
PABP polyA inh – blocks human PABP binding to poly(A) RNA | inhibition, % at 35 µM | P11940 | AID 2014 | 290,000 tested, 1% active | fluorescence polarization;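 active means 50% or more with normal probe brightness, or confirmed in later tests; inconclusive means above 50% with abnormal brightness, or retests that disagree; inactive means below 50% or failed in later tests; about a fifth of its hits are not listed in these tables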;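 further: calls also rest on retests at 20 µM and on dose response follow-up; controls were probe without protein and protein plus probe with vehicle; some compounds called inactive have numbers as strong as hits; many hits fall short of the cut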
Target sequence (P11940 whole entry, looked up): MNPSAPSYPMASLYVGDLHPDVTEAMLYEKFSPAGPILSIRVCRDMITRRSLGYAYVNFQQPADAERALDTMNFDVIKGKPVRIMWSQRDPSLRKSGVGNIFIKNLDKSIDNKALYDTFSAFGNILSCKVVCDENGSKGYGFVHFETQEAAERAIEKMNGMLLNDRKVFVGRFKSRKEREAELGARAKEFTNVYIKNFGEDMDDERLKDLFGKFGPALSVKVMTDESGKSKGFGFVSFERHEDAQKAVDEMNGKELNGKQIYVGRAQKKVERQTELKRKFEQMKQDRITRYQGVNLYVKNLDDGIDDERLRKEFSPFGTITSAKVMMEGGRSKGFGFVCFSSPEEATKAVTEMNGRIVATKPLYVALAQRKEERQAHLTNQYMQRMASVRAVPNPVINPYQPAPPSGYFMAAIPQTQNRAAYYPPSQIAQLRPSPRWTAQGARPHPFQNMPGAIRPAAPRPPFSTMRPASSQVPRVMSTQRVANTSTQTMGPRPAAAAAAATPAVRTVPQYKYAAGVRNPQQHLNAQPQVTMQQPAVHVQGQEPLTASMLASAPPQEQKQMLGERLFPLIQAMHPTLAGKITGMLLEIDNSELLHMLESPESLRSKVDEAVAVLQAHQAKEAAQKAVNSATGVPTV
MT1-MMP act inh – blocks activation of human MT1-MMP; P50281; HT1080 RFP-PRO-GFP cells, GFP/RFP ratio fluorescence, overnight; percent of plate control window, DMSO zero; GFP/RFP ratio change, % at 20 µM; 360,000 tested, 0.061% active;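 active means GFP/RFP ratio change of at least 30% with cell ATP level not reduced by more than half and red fluorescence within 50% of control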; further: strong numbers were not always called active
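Assay system: HT1080 cells carrying an RFP-PRO-GFP reporter | Dosing: Single dose of 20 µM compound, 1% DMSO final | Incubation: Cells overnight before dosing, compound overnight, 37 °C, 5% CO2 | Evaluation: GFP/RFP fluorescence ratio | Control set: DMSO and RFP-L50D-GFP cell wells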
UUG fidelity – alters start codon recognition fidelity in yeast | S. cerevisiae UUG-firefly luciferase reporter, luminescence/redox ratio | activity score, % at 18.7 µM | 350,000 tested, 0.13% active | AID 602363;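 active means replicate mean at a twofold rise or more, about +100% in these data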;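 further: firefly luciferase made from a UUG start codon reports start codon fidelity; reporter light over untreated wells divided by growth signal over untreated wells; some hits fall short of that in this replicate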
eIF4H FP inh – inhibitors of RNA binding by human eIF4H; eIF4H fluorescence polarization binding assay; inhibition, % at 35 µM; 290,000 tested, 0.94% active; AID 2012;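 active means 50% or more with normal probe brightness, or confirmed in later tests; inconclusive means above 50% with abnormal brightness, or retests that disagree; inactive means below 50% or failed in later tests; about a fifth of its hits are not listed in these tables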;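 further: calls also rest on retests at 20 µM and on dose response follow-up; 0% = protein and probe with vehicle and 100% = probe without protein; strong numbers were not always called active; many hits fall short of the cut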
Rce1 inh – inhibitors of yeast Ras-converting enzyme; yeast membranes, quenched prenylated peptide cleavage fluorescence; calls only; 290,000 tested, 0.27% active; AID 2563;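 active means fall in fluorescence gain of 50% or more versus controls, with final raw signal at or below 3038400; inconclusive means same 50% fall but final raw signal above 3038400; inactive means fall in fluorescence gain under 50%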;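 further: plate controls were neutral control wells for no effect and wells lacking membranes for full effect; tested at 10 µM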
CSC inhib – cancer stem cell inhibition; AID 2717; cancer stem cell-like cells viability, luminescence; inhibition, % at 7.5 µM; 300,000 tested, 1.1% active;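 active means mean at 75% or more and at least half the replicates too; inconclusive means mean and replicates disagree; tested in HMLE shEcad cells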;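 further: 0% = median of negative and 100% = median of positive control wells; the first replicate is given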
MT1-MMP act inh RFP – further read-out of MT1-MMP act inh, marked with its call; RFP signal change, %; measured here: RFP expression control read;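 0 = vehicle wells; hits needed this value within 50% of zero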
Active calls of the source: *; i = inactive; ? = inconclusive; · = no result given; & = joins results of further samples. This is a subset. The share of hits here may be higher or lower than overall.

Each structure is followed by: HIV Env fusion, PABP polyA inh, MT1-MMP act inh, MT1-MMP act inh RFP, UUG fidelity, eIF4H FP inh, Rce1 inh, CSC inhib
- COc1ccc(OC)c(CNn2c(-c3ccccc3F)nc3ccccc3c2=O)c1
    19, -2, -1, -2, -9, -7, i, -12
- CC(=O)N/N=C(\C)CCc1ccccc1
    15, 2, -8, 3, ·, -2, i, -21
- Cc1ccc(S(=O)(=O)c2c(C)nn(C(C)(C)C)c2OC(=O)CC(C)C)cc1
    -6, -5, -3, -2, -5, -3, i, 27
- CCN(CCn1cccn1)C(=O)CCc1nnc(-c2ccccc2)o1
    -22, 0, -1, -1, ·, 1, ·, -6
- CS(=O)(=O)N(CC(=O)Nc1ccc(F)c(F)c1)c1cccc([N+](=O)[O-])c1
    33, -5, -8, -4, 0, -3, i, -5
- Cc1cc(C)c(C#N)c(Sc2ccccc2N)n1
    10, -8, -7, 5, -17, -7, i, 0
- CN(C(=O)CSc1nc2c(c(=O)[nH]1)CCCC2)C1CCCCC1
    ·, 1, -2, 0, ·, -4, i, -10
- Cc1ccccc1NC(=O)C1CCCN(S(=O)(=O)c2ccc(-n3cnnn3)cc2)C1 (stereo unspecified)
    -7, -7, -1, -1, -17, -7, i, -7
- CC(=O)c1cccc(OCC(=O)Nc2cccc(C(=O)Nc3c(C)n(C)n(-c4ccccc4)c3=O)c2)c1
    4, ·, -1, -3, -4, ·, ·, ·
- CCOC(=O)C(C)n1cnc2c(nnn2-c2ccccc2)c1=O (stereo unspecified)
    ·, 2, 1, 4, -14, -10, i, 1
- CC(C)=Nc1ccccc1C1COC(=O)C1=N (stereo unspecified)
    15, 16, -4, -1, ·, 3, i, -7
- CN(Cc1ccccc1F)c1nc(-c2cccs2)nc2ccccc12
    17, 7, -8, -1, ·, 12, i, ·
- COc1ccc(CCn2c(=O)[nH]c3cc(C(=O)NCCCN4CCOCC4)ccc3c2=O)cc1OC
    2, -6, 1, 1, -3, -11, i, -11
- NC(=O)c1ccc(-n2nnnc2Oc2ccc(Br)cc2)cc1
    13, 7, -3, -8, ·, 9, i, -7
- C/C(=N\NC(=O)CNc1cccc(C(F)(F)F)c1)c1cccs1
    9, 10, 3, -4, 3, 11, i, 0
- O=C1C(Cl)=C(NCCN2CCCCC2)C(=O)c2ccccc21
    ·, -2, -20, -37, ·, -8, i, 107*
- Cc1cccc(NC(=O)c2ccc(Cl)c(NC(=O)c3ccncc3)c2)c1C
    16, 3, 2, -2, ·, 0, i, -3
- O=C(N=C1SCC(=O)N1c1ccccc1Cl)c1ccco1
    ·, 22, 11, 40, -18, 8, i, 13
- O=C(Nc1ccc2c(c1)OCO2)Nc1ccc(Cl)cc1Cl
    -8, 2, -6, -2, -12, -8, i, 9
- C/C(=N\NC(=O)c1c(Br)cnn1C)c1ccc(NC(=O)c2ccc(F)cc2)cc1
    -2, 1, -1, 1, ·, 2, i, 4
- COCCn1c(SCc2cc(=O)n3ccsc3n2)nnc1-c1ccncc1
    -2, -4, 1, 1, ·, -1, i, ·
- CNC(=S)N/N=C/c1ccc(OCc2ccccc2)c(Br)c1
    ·, 2, -1, -1, 4, 6, i, -1
- CN(C)S(=O)(=O)c1cccc(NC(=O)COc2ccc(C(=O)c3ccccc3)cc2)c1
    36, 16, -6, -24, ·, -6, i, ·
- CCC(C)Nc1nc(C)nc2c1oc1ccccc12 (stereo unspecified)
    3, 0, 3, -17, ·, 9, i, -13
- Cc1c(C)n2c(SCC(=O)NCc3ccc4c(c3)OCO4)nnc2[nH]c1=O
    ·, ·, 4, 2, -10, ·, i, -10
- CCCc1cc(-c2n[nH]c(=S)n2C(C)c2ccccc2)cs1 (stereo unspecified)
    2, 3, 3, -5, -11, 13, i, 5
- CN(CCc1cn[nH]c1)C(=O)C1CCC(=O)N(CC2CCCCC2)C1 (stereo unspecified)
    11, -3, -3, 7, -13, -3, i, ·
- Cc1cc(C(=O)NCc2cc(C(=O)O)co2)co1
    0, 1, 1, 2, ·, 39, i, 35
- N#C/C(=N\Nc1ccccc1F)c1nc(-c2ccccc2)cs1
    -31, 2, -17, -10, ·, 2, i, -13
- CCOc1ccccc1-n1c(SCC(N)=O)nnc1-c1ccc(O)cc1
    -28, -2, 0, -3, -6, 5, i, 2
- C[C@H]1CN([C@@H](C)CO)C(=O)CCCn2nncc2CO[C@@H]1CN(C)Cc1ccc2c(c1)OCO2
    -4, ·, -3, 1, 0&10, ·, ·, ·
- Cc1cccc(Nc2nc(N)c([N+](=O)[O-])c(NCc3ccco3)n2)c1
    ·, -5, -8, -14, -16, -1, i, 56
- CC(=O)C1=C(O)C(=O)N(CCCN2CCOCC2)C1c1ccccc1[N+](=O)[O-] (stereo unspecified)
    ·, 10, ·, ·, ·, 9, i, -8
- O=C(CN1CCCCC1)Nc1cccc(-n2cnnn2)c1
    -26, -9, 4, 3, -16, -5, i, 2
- COCCOC(=O)C1=C(C)NC2=C(C(=O)CCC2)C1c1ccc(N(C)C)cc1 (stereo unspecified)
    -38, 2, -3, -1, 5, 5, i, -9
- CC(O)(CS(=O)(=O)Cc1ccccc1)C(=O)Nc1ccc(C(F)(F)F)cc1 (stereo unspecified)
    33, -11, -2, 3, -4, -8, i, 0
- COc1cccc(-c2cc3nc(-c4ccccc4)cc(N4CCC5(CC4)OCCO5)n3n2)c1
    ·, 2, 4, -3, -12, -1, i, 13
- CC(=O)N/N=C(\C)CC(=O)Nc1ccc2c(c1)OCCO2
    -3, -5, 5, 7, -9, -10, i, ·
- Fc1ccccc1COc1cccc(/C=N/n2cnnc2)c1
    -8, 0, 4, -1, -15, 9, i, 5
- OCC#Cc1cnc2ccccc2c1
    ·, -4, 4, 3, 1, -4, i, 1
- COc1ccc(CNCC(=O)Nc2cccc(S(N)(=O)=O)c2)cc1
    2, 12, 1, -6, -15, 15, i, -9
- CC(=O)N(c1cccc(Br)c1)C1C=CS(=O)(=O)C1 (stereo unspecified)
    ·, -1, -3, -1, 4, -12, i, 0
- CSc1nncc(=O)[nH]1
    -12, 3, 1, 7, ·, 6, i, -4
- COc1ccccc1NC(=O)Cn1nnc(C(=O)NCCc2ccccc2)c1N
    -13, -4, 6, 5, -11, 7, ·, -5
- Cc1cccc(Cc2nnc(CCC(=O)NCc3ccncc3C)o2)c1
    0, 2, -3, -1, -17, 3, i, -17
- C=CCn1c(C)cc(C(=O)COc2nncc3ccccc23)c1C
    -147, 28, -11, 4, -6, 15, i, -7
- Cc1cc(Oc2ccc([N+](=O)[O-])cc2)nc(N2CCOCC2)n1
    1, 8, 3, 2, ·, -7, i, 1
- CC(C)(C)N1C(=O)c2ccccc2NC(=O)N1Cc1ccc(Br)cc1
    ?, 1, -6, -9, -5, -1, i, -9
- Cc1cccc(-n2ncc(Cl)c(Cl)c2=O)c1
    -423, 7, -6, -16, -19, 3, i, 138*
- COc1ccc(-c2[nH]c(-c3ccc(Cl)cc3)nc2SCC(=O)Nc2nccs2)cc1
    -3, -5, -6, -12, -18, -6, i, 26

(listing goes on)
Each structure is followed by: HIV Env fusion, PABP polyA inh, MT1-MMP act inh, MT1-MMP act inh RFP, UUG fidelity, eIF4H FP inh, Rce1 inh, CSC inhib
- Cc1ccccc1NC(=O)COc1ccc(Br)cc1C
    -48, 7, 3, 0, ·, 5, i, -8
- CCC(C)NC(=O)CNC(=O)c1nn(-c2ccc(OC)cc2)c(=O)c2ccccc12 (stereo unspecified)
    -12, -1, 2, 1, -12, -1, i, -14
- CC(C)c1ccc(NC2CCCN(C(=O)C3=NN(C)C(=O)CC3)C2)cc1 (stereo unspecified)
    -14, 1, -2, -4, -3, -1, i, -7
- CC(=O)Nc1ccc(NC(=O)c2ccc(Cn3cc(Cl)cn3)cc2)cc1
    27, 22, -3, -2, ·, 0, i, -1
- Cc1ccc(C2=NN(C(=O)CCC(=O)O)C(c3cccs3)C2)cc1 (stereo unspecified)
    -67, -2, 1, 2, -3, -9, i, -9
- COc1ccc(-n2ncc3c(NCCN4CCOCC4)ncnc32)cc1
    ·, 9, 3, 2, ·, -5, i, -20
- Cc1ccc(C(=O)COC(=O)c2ccc(Br)o2)cc1C
    -39, -4, -2, 0, -18, -2, i, 10
- COCc1cc(CN(C)C(=O)c2oc3c(F)cccc3c2C)[nH]n1
    -12, 2, 0, 1, 0, 24, i, -1
- COc1cc(/C=N/NC(=O)/C(=C\c2ccc([N+](=O)[O-])cc2)NC(=O)c2ccccc2)cc(OC)c1O
    -89, 3, 0, -2, -9, 2, i, -9
- CCCc1ccc(C(=O)NNC(=O)c2ccc(Cl)cc2)cc1
    -6, -1, 10, 1, ·, -4, i, -5
- Brc1c(-c2ccccc2)nc2n1Cc1ccccc1-2
    -63, -5, 0, -3, -3, 0, i, 9
- COc1ccc(-c2noc(-c3ccco3)n2)cc1OC
    -477, -1, 8, 11, -16, -4, i, 6
- CCCCC(O)(CCCC)C(=O)NN(C(=O)CCl)c1ccccc1
    11, 4, -4, -1, ·, 2, i, ·
- CC1CC(C)CN(CC(=O)NCCc2ccc(S(N)(=O)=O)cc2)C1 (stereo unspecified)
    -1, -11, -5, 1, ·, 3, i, -8
- CCN(CCCNC(=O)CNC(=O)c1nn(-c2ccc(OC)c(OC)c2)c(=O)c2ccccc12)c1ccccc1
    8, 0, 0, -2, -7, -4, i, -15
- CCc1ccccc1S(=O)(=O)Cc1ccc(C(=O)NCc2cccs2)o1
    18, 5, -2, -4, ·, -4, i, -2
- COc1ccc(CNC(=S)N/N=C/c2ccc(O)c(OC)c2)cc1
    -13, -4, 4, 5, -22, -5, i, 13
- Cc1cccc(NS(=O)(=O)c2cn(C)c(=O)n(C)c2=O)c1C
    -8, -12, -5, 3, 3, -8, i, -3
- O=C(Cc1cccs1)Nc1nnc(COc2ccccc2)s1
    -32, ·, 4, 0, -9, ·, i, -2
- NC(=O)c1ccccc1N/C=C/C(=O)c1ccccc1
    -112, 3, -1, 4, -1, -7, ·, 12
- CCOC(=O)c1ccccc1NC(=O)c1cccs1
    -51, 3, 0, -3, -4, -7, ·, -3
- O=C(Nc1ccc(-c2nnn(CC(=O)N3CCN(C(=O)c4ccco4)CC3)n2)cc1)c1ccc(F)cc1
    24, 6, 8, -2, -5, -14, i, -5
- COc1ccc(CN2CCNC(=O)C2CC(=O)NC2CCOCC2)cc1C (stereo unspecified)
    0, 14, 1, 1, -2, 12, i, ·
- COc1ccccc1NC(=O)CCCCC(=O)Nc1ccccc1OC
    -6, 4, -2, -4, -17, -3, i, -8
- Cc1ccc(NCC(=O)N/N=C\c2cccc(O)c2)cc1
    -165, 8, 2, 4, ·, 3, ·, 1
- CCc1ccccc1NS(=O)(=O)c1cc2c(cc1C)n(C)c(=O)c(=O)n2C
    -34, 3, 9, 3, -4, -14, i, ·
- CN1CCC[C@@H]1CCNC(=O)c1cccc2c1C(=O)c1ccc(N3CCCC3)cc1S2(=O)=O
    12, ·, -71, 4, -9, ·, ·, ·
- Cc1cc(C(C)(C)C)oc1C(=O)OCC(=O)NC1CCCCC1
    3, -3, 0, 5, ·, -2, ·, -2
- C/C(CC(=O)Nc1ccc(Cl)cc1Cl)=N\NC(=O)c1ccco1
    -10, -4, 4, 1, 4, -5, i, -8
- Cc1ccc2c(c1)c1c3n2CCN(C(=O)Cn2c(-c4ccccc4)noc2=O)C3CCC1 (stereo unspecified)
    12, -6, -2, -6, -17, -3, i, -12
- CCC(c1nnnn1CCOC)N1CCN(c2nc3ccccc3s2)CC1 (stereo unspecified)
    13, 3, 1, -3, ·, -18, i, -11
- Cc1csc(NC(=O)CSc2nnc(-c3ccccn3)n2-c2ccc(C)c(C)c2)n1
    ·, -9, 5, 13, -22, -12, i, -11
- ON1C2CCCCC2N(O)C1c1c(F)c(F)c(F)c(F)c1F (stereo unspecified)
    -27, 2, -4, 1, ·, -12, i, -15
